ClpP mod – qHTS Assay for Activators of ClpP; Potency, µM (top dose mostly 57.5 µM), for the others: at the top dose activity change, negative = active; 340,000 compounds, 1.9% hits; purified B. subtilis ClpP, FRET peptide cleavage, 20 min; active = well fitted falling curve with a large enough effect; inconclusive = small, poorly fitted or top-dose-only effect; inactive = no such curve, though single readings can be large or run the other way; further: the source files actives as falling curves though it sought activators and does not explain the sign; nearly all actives have a fitted effect of over 65% in size; many hits overshoot -100%
Target sequence (P80244 whole entry, looked up): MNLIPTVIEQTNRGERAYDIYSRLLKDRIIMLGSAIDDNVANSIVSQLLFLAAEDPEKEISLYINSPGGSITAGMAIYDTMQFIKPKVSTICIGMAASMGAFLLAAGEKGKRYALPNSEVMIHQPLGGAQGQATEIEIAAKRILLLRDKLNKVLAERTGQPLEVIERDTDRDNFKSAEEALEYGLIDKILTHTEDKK
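Purified B. subtilis ClpP, 10 microg/mL final in Tris/HCl pH8 with KCl, BSA, glycerol and Tween-20, cleaved an Abz/nitrotyrosine-quenched decapeptide. Fluorescence (ex 320, em 430) was read at 0 and 20 min at room temperature. Delta was normalized to 5.8 microM ADEP and DMSO/no-enzyme controls.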
The depositor's hits bear a star; ? = inconclusive. Potency means the concentration at half of the fitted maximal effect. Only part of the results is shown (hit frequency here may not be typical).

SMILES	ClpP mod
CCc1ccc(CNC(=O)CN2C(=O)CSc3c2c(C)nn3-c2ccccc2)cc1	-0.6%
CCOC(=O)c1ccc(NC(=O)C(CC)Sc2nncn3c2cc2oc(C)cc23)cc1 (stereo unspecified)	-3.2%
Cc1cccn2c(=O)c3cc(C(=O)NC(C)c4ccccc4)c(=N)n(CCOCCO)c3nc12 (stereo unspecified)	3.8%
Cc1cccc(NC(=O)Cn2nc3c4ccccc4n(Cc4ccccc4)cc-3c2=O)c1	1.1%
Cc1ccc(C)c(N2CCN(CCCNC(=O)c3ccc4nc(N5CCC(C)CC5)sc4c3)CC2)c1	-7.7%
COc1ccc(N2CC(C(=O)Nc3ccccc3-c3nc(-c4ccc(C)cc4)no3)CC2=O)cc1 (stereo unspecified)	-5.2%
CCc1cccc(C)c1NC(=O)c1cnn(-c2ccc(F)cc2)c1-n1cccc1	4.1%
Nc1ncc(S(=O)(=O)NCc2ccccc2)cn1	-8.9%
COc1ccc(CCNC(=O)c2ccc3c(c2)ncn3-c2ccc(C(C)C)cc2)cc1OC	-2.3%
Cc1cccc(NC(=O)c2c(C)cc(C)nc2SCC(=O)c2ccccc2)c1	-1.0%
Cc1cc(C)cc(NC(=O)C2CCN(c3nc4ccccc4nc3C(F)(F)F)CC2)c1	-1.7%
CCc1cc2c(cc3c(=O)n(CCCC(=O)NCc4cccc(Br)c4)ncn32)s1	-4.4%
Cc1ccccc1NC(=O)c1c2c(nc3ccccc13)C(=O)N(C1CCCCC1)C2	-3.6%
CCOC(=O)c1c(S(=O)(=O)N2CCC(C(=O)Nc3ncccc3C)CC2)c(C)n(C)c1C	1.4%
COc1ccc(-c2noc(N3CCC(C(=O)N4CCN(c5ccccc5OC)CC4)CC3)n2)cc1	-4.9%
Brc1ccc(C=C2C=c3ccccc3=C2)cc1	0.2%
Cn1nc(-c2ccc(C(=O)Nc3cccc(C(F)(F)F)c3)cc2)c2ccccc2c1=O	-1.7%
CCCN(CCC)C(=O)Cn1c(=O)n(CCCCCC(=O)NCc2ccccc2Cl)c(=O)c2sccc21	-2.3%
Cc1ccc2onc(CC(=O)N3CCN(c4cc(Cl)ccc4C)CC3)c2c1	-2.5%
COc1ccc(C)cc1NC(=O)C(Cc1ccccc1)NS(=O)(=O)c1cccs1 (stereo unspecified)	-2.1%
Fc1cccc(-n2ncc3c2ncn2nc(-c4ccccc4Cl)nc32)c1	-8.6%
COc1ccc(OC)c(NC(=O)C2CCN(S(=O)(=O)c3c(C)noc3/C=C/c3ccc(C)cc3)CC2)c1	-26%
COC(=O)c1ccccc1NC(=O)CCCn1c(C)c2cnn(-c3ccccc3)c(=O)c2c1C	1.2%
N#C/C(=C\c1c(Oc2ccc(F)cc2)nc2ccccn2c1=O)c1nc2ccccc2s1	3.8%
CC(CNC(=O)C1CCN(C(=O)c2cc3sccc3n2C)CC1)c1ccccc1 (stereo unspecified)	1.0%
Clc1ccccc1Cn1cccc1C1=NC(Cc2ccccc2)CO1 (stereo unspecified)	0.5%
COc1ccc(N2CCN(C(CNC(=O)c3ccc(C)cc3)c3ccc4c(c3)OCO4)CC2)cc1 (stereo unspecified)	-5.6%
O=C(O)c1cc(-n2c(/C=C\c3ccc(F)cc3)nc3ccccc3c2=O)ccc1Cl	-0.5%
COc1ccc2c(c1)c1c(c(=O)n(-c3cccc(Cl)c3)c(=O)n1CC(=O)NCC1CCCO1)n2C (stereo unspecified)	4.1%
COc1ccc(C(=O)NCC(c2cccs2)S(=O)(=O)c2ccc(C)cc2)cc1 (stereo unspecified)	1.5%

Sorted by count of non-hydrogen atoms (ascending): 3 of the compounds above
SMILES	ClpP mod
Clc1ccccc1Cn1cccc1C1=NC(Cc2ccccc2)CO1 (stereo unspecified)	0.5%
Cc1ccccc1NC(=O)c1c2c(nc3ccccc13)C(=O)N(C1CCCCC1)C2	-3.6%
COc1ccc(OC)c(NC(=O)C2CCN(S(=O)(=O)c3c(C)noc3/C=C/c3ccc(C)cc3)CC2)c1	-26%

The results go on.
SMILES	ClpP mod
CCOC(=O)c1ccc(NC(=O)C2Cc3ccccc3C(=O)O2)cc1 (stereo unspecified)	-5.8%
COc1ccccc1C(=O)OCc1cc(=O)n2nc(C3CC3)sc2n1	-9.3%
COc1ccc(CCNC(=O)CCc2c(C)c3cc4c(C)coc4cc3oc2=O)cc1	-21%
Cc1nc2c(-c3ccc(F)cc3)c(C)nn2c(C)c1CCC(=O)NCc1cccc(Cl)c1	-3.4%
Cc1ccc(NC(=O)c2ccc(-c3cccc(Cl)c3C)o2)cc1	?
Cc1ccc(Cn2c(C(=O)O)c(CNC3CCCCC3)c3ccc(C)cc32)cc1	-9.0%
CCn1cc(C(=O)N(C)Cc2ccccc2)c(=O)c2cc(S(=O)(=O)N3CCc4ccccc4C3)ccc21	-10%
CCC(C)c1ccccc1OCC(=O)Nc1ccc(S(=O)(=O)Nc2cc(C)on2)cc1 (stereo unspecified)	0.4%
Cc1c(C(=O)Nc2ccc(F)c(F)c2)oc2ccc(S(=O)(=O)N(C)C3CCCCC3)cc12	?
O=C(NCc1ccccc1)c1ccc(CSc2nc3cccnc3n2Cc2ccccc2F)cc1	?
CCN(CC)c1ccc(CNS(=O)(=O)c2cc3c(cc2C)NC(=O)CO3)cc1	1.6%
CCc1ccc(NC(=O)Cn2cc(S(=O)(=O)N3CCCC3)c(S(=O)(=O)N3CCCC3)c2)cc1	3.1%
CCOC(=O)N1CCc2c(sc3c2C(=O)NC(c2ccccc2F)N3)C1 (stereo unspecified)	-0.2%
Cc1ccc(CN(C(=O)COc2cccc([N+](=O)[O-])c2)c2ccccn2)o1	-0.1%
C(=C\c1ccnc2ccccc12)/c1ccc2ccccc2n1	4.6%
CC1CCC(NC(=O)CCc2cn(Cc3ccc(F)cc3)c3ccccc23)CC1 (stereo unspecified)	?
CCOc1ccc(C(=O)Nc2ccc3c(c2)CCCN3S(=O)(=O)c2ccc(C)cc2)cc1	-8.8%
Cc1ccc(-c2cnc(NCc3ccc(C(F)(F)F)cc3)n2C)cc1	-3.6%
CCOc1ccc(/C=C/c2nc(C#N)c(NCCc3ccccc3)o2)cc1	4.7%
CN(c1ccc(/C=C/c2ccccc2)cc1)P1(=O)NCCCO1 (stereo unspecified)	4.2%
Cc1cccc(OCC(=O)Nc2ccc3nc(Nc4cccc(Cl)c4)cc(C)c3c2)c1	4.0%
Cc1c(Cl)cccc1NC(=O)CCS(=O)(=O)c1ccc(Br)s1	-0.6%
Cc1cccc(OC(=O)c2cc(-c3ccc(Cl)cc3)on2)c1C	0.9%
CCOC(=O)c1cc(NC(=O)c2ccccc2)c(=O)n2c1oc1ccc(Cl)cc12	4.1%
COc1ccc(CNC(=O)Cn2ccc3cc(S(=O)(=O)N4CCCCC4)ccc32)c(OC)c1	-28%
COc1cccc(CNC(=O)c2cnc(N3CCCCC3)c3ccccc23)c1	-10%
CC(=O)c1ccc(NC(=O)c2cc(-c3ccc(C)s3)nc3ccccc23)cc1	-26%
N#Cc1ccccc1NC(=O)C(=O)NCC(c1cccnc1)N1CCc2ccccc2C1 (stereo unspecified)	-1.0%
CCCCc1nn2c(=O)cc(COC(=O)c3cccc(NC(=O)CCc4ccccc4)c3)nc2s1	0.0%
CCc1cccc(CC)c1NC(=O)c1c(C)oc2ccc(O)c(CN3CCN(C)CC3)c12	0.3%

An excerpt of these results, in markdown.
| mol | ClpP mod |
| --- | --- |
| Clc1ccccc1Cn1cccc1C1=NC(Cc2ccccc2)CO1 (stereo unspecified) | 0.5% |
| COc1ccc(N2CCN(C(CNC(=O)c3ccc(C)cc3)c3ccc4c(c3)OCO4)CC2)cc1 (stereo unspecified) | -5.6% |
| O=C(O)c1cc(-n2c(/C=C\c3ccc(F)cc3)nc3ccccc3c2=O)ccc1Cl | -0.5% |
| COc1ccc2c(c1)c1c(c(=O)n(-c3cccc(Cl)c3)c(=O)n1CC(=O)NCC1CCCO1)n2C (stereo unspecified) | 4.1% |
| COc1ccc(C(=O)NCC(c2cccs2)S(=O)(=O)c2ccc(C)cc2)cc1 (stereo unspecified) | 1.5% |
| CCOC(=O)c1ccc(NC(=O)C2Cc3ccccc3C(=O)O2)cc1 (stereo unspecified) | -5.8% |
| COc1ccccc1C(=O)OCc1cc(=O)n2nc(C3CC3)sc2n1 | -9.3% |

(list continues)
SMILES	ClpP mod
O=C(Nc1ccccc1C(F)(F)F)c1ccc(F)c(S(=O)(=O)N2CCc3ccccc3C2)c1	-3.9%
CCCOC(=O)c1c(NC(=O)c2cc3nc(-c4ccc(OC)cc4)cc(C(F)(F)F)n3n2)sc2c1CCCC2	-9.3%
C(=Nc1ccc2ccccc2n1)c1ccccn1	4.7%
CCOC(=O)CNC(=O)N1CCCN(S(=O)(=O)c2ccc3c(ccn3CC)c2)CC1	-7.8%
Cc1ccccc1CNC(=O)c1ccc(Cn2c(SCc3ccccc3)nc3cccnc32)cc1	4.7%
O=C(Cn1cc(S(=O)(=O)Cc2ccc(F)cc2)c2ccccc21)NCc1ccccc1	-1.4%
CC(CNC(=O)c1ccc2nc(CCc3ccccc3)oc2c1)c1ccccc1 (stereo unspecified)	-11%
CC1CCN(C(=O)c2ccc3c(c2)N(Cc2ccccc2F)C(=O)c2ccccc2S3(=O)=O)CC1	-1.5%
Fc1ccc(Nc2nc3nonc3nc2Nc2cccc(C(F)(F)F)c2)cc1	-1.1%
CN(C(=O)c1cc2nc(-c3ccco3)cc(C(F)(F)F)n2n1)c1ccc(OC(F)(F)Cl)cc1	-12%
COc1cccc(NC(=O)c2c(C)oc3nc(C)nc(N4CCCC4)c23)c1	-0.8%
COC(=O)CN1C(=O)C(O)(CC(=O)c2ccc(F)cc2)c2ccccc21 (stereo unspecified)	0.7%
CCCOc1ccc(NC(=O)CC2C(=O)N(c3ccc(C)cc3)C(=O)N2Cc2cccc(OC)c2)cc1 (stereo unspecified)	2.6%
COc1cccc(-c2ccc3c(N)c(C(=O)c4ccc(Cl)cc4)sc3n2)c1	0.9%
CC1CCC(N2CC(=O)N(C3CCCCC3)C(c3ccc(F)cc3)C2=O)CC1 (stereo unspecified)	1.8%
CCc1ccc(-n2nc(C)c3c(C)cc(=O)n(CC(=O)Nc4cc(C)ccc4C)c32)cc1	-7.5%
CCOc1ccc(CC(=O)NCCc2sc(-c3cccc(F)c3)nc2C)cc1	3.6%
Fc1ccc(-c2nn(-c3ccc(Cl)cc3)c3c2cnc2ccc(F)cc23)cc1	-0.7%
COc1ccc(-c2nc(S(=O)(=O)c3ccc(Cl)cc3)c(NCc3ccccc3)o2)cc1	-1.2%
O=C(Nc1c2c(nn1-c1ccc(Cl)cc1)CS(=O)(=O)C2)c1cccc(Cl)c1	-2.0%
C[S+](C)CC(=O)c1ccc2ccccc2c1	-17%
CC1(C)CCc2cc(O)ccc2O1	0.8%
CCCCc1nn2c(=O)cc(COC(=O)c3ccc(NC(=O)c4ccccc4Cl)cc3)nc2s1	-2.5%
COc1cc(Cl)c(C)cc1NC(=O)CCc1c(C)nc2c3cccnc3nn2c1C	25µM*
CCN(CCCNC(=O)Cn1ncc2c3ccccc3n(C)c2c1=O)Cc1ccccc1	4.8%
CCc1ccc(NC(=O)N2CCN(Cc3nc4ccc(C)cc4o3)CC2)cc1	0.5%
CC1CCc2cc(F)cc3c2N1C(=O)C(C(=O)Nc1cnccn1)C3=O (stereo unspecified)	-3.4%
COc1cccc(NC(=O)CCc2nc3c(C)nn(-c4ccc(C)cc4)c3n(C)c2=O)c1	-2.3%
C[N+](C)(C)c1ccc(/C=C2\C=Cc3ccccc32)cc1	1.0%
CCOC(=O)CC1c2cc(OCC)c(OCC)cc2CCN1C(=O)Nc1cccc(Cl)c1 (stereo unspecified)	-0.6%

Some of the entries so far, bar-delimited.
SMILES | ClpP mod
COc1cc(Cl)c(C)cc1NC(=O)CCc1c(C)nc2c3cccnc3nn2c1C | 25µM*
CCN(CCCNC(=O)Cn1ncc2c3ccccc3n(C)c2c1=O)Cc1ccccc1 | 4.8%

(continued)
SMILES	ClpP mod
Cc1ccc2c(c1)C(c1ccccc1)N(C(=O)Cc1ccc(F)cc1)CC(=O)N2 (stereo unspecified)	0.9%
CCc1ccccc1NC(=O)CSc1ncc2c(n1)-c1ccccc1N(C)S2(=O)=O	3.9%
Cc1ccc(COc2ccc(-c3cc(C(F)(F)F)n4nc(C)cc4n3)cc2)cc1	-7.5%
CCOC(=O)c1ccc(NC(=O)c2c(C)nn(-c3ccc(F)cc3)c2-n2cccc2)cc1	2.5%
COc1cc(NC(=O)c2nn(-c3ccc(C)cc3)c(=O)c3c2c2ccccc2n3C)cc(OC)c1OC	-2.5%
COc1ccc(NC(=O)CC2C(=O)N(c3ccc(C)cc3)C(=O)N2C2CCCCC2)cc1 (stereo unspecified)	-0.4%
O=C(Nc1ccc2nc(SCC(=O)N3CCc4ccccc43)sc2c1)c1ccc(F)cc1	416%
Cc1csc2nc(COC(=O)c3ccccc3NC(=O)c3cccc(Br)c3)cc(=O)n12	-0.2%
Cc1ccc(CSC2=Nc3ccccc3C3=NC(CC(=O)NCc4cccs4)C(=O)N23)c(C)c1 (stereo unspecified)	-0.8%
COc1ccc(-n2c(=O)c3c4c(sc3n(C)c2=O)CN(C(C)=O)CC4)cc1	-1.3%
CCc1nn2c(=O)cc(COC(=O)c3ccc(NC(=O)COc4ccccc4C)cc3)nc2s1	0.3%
COc1ccc(C2CC(=O)Nc3c2c(C)nn3-c2nncc(-c3ccc(C)cc3)n2)c(OC)c1OC (stereo unspecified)	-0.9%
O=C(CCc1nc2cccnc2n1Cc1cccs1)Nc1cccc(Cl)c1	-3.6%
CC(C)c1ccc(OC(=O)c2cc(-c3ccccc3)on2)cc1	1.8%
CN(Cc1ccccc1)c1ccc(-c2nc(-c3ccncc3)no2)cc1[N+](=O)[O-]	-1.1%
Cc1cc(C)cc(NC(=O)c2cc(S(=O)(=O)N3CCCC3)ccc2F)c1	-2.9%
Cc1cccc(C(=O)Nc2ccc(C(=O)OCc3cc(=O)n4c(C)csc4n3)cc2)c1	-2.7%

Bioassay records (PubChem BioAssay)
